TsaE inh: displaces an ADP probe from E. coli YjeE (TsaE) | purified YjeE, fluorescence polarisation of a bound ADP probe | Potency, µM | 0.05% of 71,000 active | AID 605; active = well fitted falling curve; inconclusive = weaker or top-dose-only fall, or a rising curve; inactive = flat or poorly fitted curve;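 note: top concentration of the series not given in the record; excess ADP was the control for the full effect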
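Fluorescence polarization of a BODIPY Texas Red–ADP probe (2 uM) bound to purified YjeE (10 uM) was read after 15 min room-temperature incubation with compounds. Loss of polarization marks inhibitors; ADP serves as titrated control.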
PK Bst: modulators of Bacillus stearothermophilus pyruvate kinase; partly purified Bacillus stearothermophilus pyruvate kinase, luminescence ATP production; ribose 5-phosphate activator present at AC10; Potency, µM; 1.2% of 51,000 active; in the data active means potency below about 11 µM; inconclusive means mostly about 12 µM to 25 µM; inactive means weaker than that;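 the screen sought inhibitors and activators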;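 note: potency is the fitted concentration of half-maximal effect; scaled between full activation by ribose 5 phosphate and full inhibition by luteolin; about four in five hits inhibit and the cells do not say which; series up to 57 µM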
Starred values were filed as active, the others as inactive; i = inactive; ? = inconclusive; · = not tested or not shown.

Structure	TsaE inh	PK Bst
CCOC(=O)C(C)Sc1nc2c(c(=O)[nH]c(=O)n2C)n1CCc1ccccc1 (stereo not given)	i	>57
Cc1ccc(NC(=O)Cn2nnc(C(=O)Nc3ccc(C)c(C)c3)c2N)cc1	i	>57
CCOC(=O)CSc1nnc(CNc2cccc(Cl)c2)n1-c1ccccc1	i	>57
Cc1ccc(S(=O)(=O)NC(C)C(=O)Nc2ccc(C(N)=O)cc2)cc1 (stereo not given)	i	>57
COc1ccc(CNC(=O)CCCCCn2c(SCC#N)nc3cc4c(cc3c2=O)OCO4)cc1	i	>57
CS(=O)(=O)Nc1ccc(-c2n[nH]c(=S)n2-c2ccccc2)cc1	i	>57
CC(C)N(CCNC(=O)C1CCN(S(=O)(=O)N2CCOCC2)CC1)Cc1ccccc1	i	>57
c1ccc2sc(N3CN(CCN4CCOCC4)CN(c4nc5ccccc5s4)C3)nc2c1	i	>57

4 consecutive compounds out of the list so far:
Structure	TsaE inh	PK Bst
COc1ccc(CNC(=O)CCCCCn2c(SCC#N)nc3cc4c(cc3c2=O)OCO4)cc1	i	>57
CS(=O)(=O)Nc1ccc(-c2n[nH]c(=S)n2-c2ccccc2)cc1	i	>57
CC(C)N(CCNC(=O)C1CCN(S(=O)(=O)N2CCOCC2)CC1)Cc1ccccc1	i	>57
c1ccc2sc(N3CN(CCN4CCOCC4)CN(c4nc5ccccc5s4)C3)nc2c1	i	>57

Additional results follow.
Structure	TsaE inh	PK Bst
COCCNC(=O)CN(C(=O)Cn1nnc2ccccc21)c1ccc(F)c(Cl)c1	i	>11.4
COc1ccccc1N(CN1C(=O)c2ccccc2C1=O)C(=O)c1cccnc1	i	>57
Cc1ccc(C(=O)O)cc1S(=O)(=O)N1CCOCC1	i	>57
CC(C)C[C@@H](CC(=O)N[C@@H](CCCN)CC(=O)N[C@@H]1CCCC[C@H]1C(=O)N[C@H](CC(=O)N[C@@H](CCC(=O)O)CC(=O)O)CC(C)C)NC(=O)[C@@H]1CNCC[C@H]1N	i	·
COc1ccc2[nH]cc(CCNc3ncncc3-c3ccccc3C(F)(F)F)c2c1	i	·
COc1ccccc1NC(=O)Cn1nnc(-c2ccccc2NC(=O)c2cccs2)n1	i	>57
OC(COc1ccc2cc(Br)ccc2c1)CN1CCN(c2ccccn2)CC1 (stereo not given)	i	>57
O=c1oc2ccccc2n1CSc1nc2ccccc2s1	i	>57

Ordered by molar mass (low to high): 5 of the compounds above
Structure	TsaE inh	PK Bst
O=c1oc2ccccc2n1CSc1nc2ccccc2s1	i	>57
CCOC(=O)C(C)Sc1nc2c(c(=O)[nH]c(=O)n2C)n1CCc1ccccc1 (stereo not given)	i	>57
COCCNC(=O)CN(C(=O)Cn1nnc2ccccc21)c1ccc(F)c(Cl)c1	i	>11.4
c1ccc2sc(N3CN(CCN4CCOCC4)CN(c4nc5ccccc5s4)C3)nc2c1	i	>57
CC(C)C[C@@H](CC(=O)N[C@@H](CCCN)CC(=O)N[C@@H]1CCCC[C@H]1C(=O)N[C@H](CC(=O)N[C@@H](CCC(=O)O)CC(=O)O)CC(C)C)NC(=O)[C@@H]1CNCC[C@H]1N	i	·

The listing continues:
Structure	TsaE inh	PK Bst
CCCCOc1ccc(C(=O)OC(C)CN(C)C)cc1 (stereo not given)	i	>57
CCN(CC)CCCN1C(=O)C(O)=C(C(=O)c2cc3cccc(OC)c3o2)C1c1ccncc1 (stereo not given)	i	>57
CCCCCOC(=O)Nc1ccc(S(=O)(=O)Nn2cnnc2)cc1	i	·
Cc1c(O)ccc(C(=O)COc2ccccc2F)c1O	i	·
CSCCC1NC2(C(=O)Nc3c2ccc(Cl)c3C)[C@@H]2C(=O)N(C3CCCC3)C(=O)[C@H]12 (stereo not given in full)	i	>57
Cc1c(C)[n+](=O)c(-c2ccc(F)cc2)c(C)n1[O-]	i	·
COc1ccc(CN(C(=O)CN2C(=O)COc3ccccc32)C2CCCC2)c(OC)c1	i	>57
O=C1C2ON(c3ccccc3)C(c3cccnc3)C2C(=O)N1c1ccc(Cl)c(Cl)c1 (stereo not given)	·	>25.6
Clc1ccc(Cl)c(Cl)c1Cl	i	·
Cc1cc(N2CCN(c3cccc(C(F)(F)F)c3)CC2)n2ncnc2n1	i	·
CC1CCN(c2ccc(C(=O)O)cc2)CC1	i	>57
Cc1cc(C(=O)NNCc2ccccc2)no1	i	·
CCN(C(=O)c1cn(C)c(=O)c2cc(OC)c(OC)cc12)c1cc(C)ccc1C	i	>57
COC(=O)Nc1sc2c(c1C(=O)NCc1ccco1)CCC2	i	>57
O=C1CC(O)(C(F)F)Oc2ccc3ccccc3c21 (stereo not given)	i	>11.4
CC(=O)OCc1c(COC(C)=O)[n+](=O)c2ccccc2n1[O-]	·	>11.4
CCOc1cc(C(=S)N2CCOCC2)ccc1O	i	·
CN(CCC#N)C(=O)Cn1nc(Cc2ccncc2)c2ccccc2c1=O	i	·
CC1Cc2cc(-c3csc(NC(=O)Cc4cccs4)n3)ccc2N1S(C)(=O)=O (stereo not given)	i	>57
C=CCOc1nc2c(c(=O)n(C)c(=O)n2C)n1Cc1ccc(Cl)cc1	·	>25.6
Cc1nc(N=Nc2ccc(S(=O)(=O)O)cc2S(=O)(=O)O)c(COP(=O)(O)O)c(C=O)c1O	i	·
N#Cc1nc(-c2cccs2)oc1N1CCN(Cc2ccccc2)CC1	i	>57
COCCCn1c(SCC(=O)n2c(C)c(C)c3ccccc32)nnc1-c1ccoc1C	i	>57
CC(CC(=O)O)CC(=O)Nc1ccccc1C(=O)O (stereo not given)	i	>57
c1ccc(Nc2cc(Nc3ccccc3)[nH]n2)cc1	i	i
O=C1c2ccccc2-c2nc3ncnn3c(-c3ccccc3)c21	i	>57
Cc1nc(C)c(C(=O)Nc2cccc(Cl)c2)o1	i	>57
COC(=O)c1ccc(N/C(C)=C/C(=O)c2ccc(C)o2)cc1	i	>57
COc1ccc(C2N(C(=O)CN3CCOCC3)CCN2S(=O)(=O)c2ccccc2)cc1 (stereo not given)	i	>57
O=C(O)CS(=O)c1ccc2c3c(cccc13)C(=O)c1ccccc1-2 (stereo not given)	i	·
Cc1cccc(NC(=O)CS(=O)(=O)c2cn(C)c3ccccc23)c1C	i	i
O=C1c2ccccc2OCOc2ccccc21	i	·

Remaining list, next part
Molecule	TsaE inh	PK Bst
COc1cc2c(cc1NC(=O)c1ccco1)CCCC2	i	·
Cc1[nH]c2ccccc2c1/C=N/n1cnnc1	i	·
Cc1sc2nc(N)sc2c1C	i	>57
O=C(NC1CCS(=O)(=O)C1)c1ccccc1C(=O)c1ccccc1 (stereo not given)	i	·
O=C(NCc1ccc2c(c1)OCO2)C1CCN(S(=O)(=O)c2cccc3nsnc23)CC1	i	>57
O=S(=O)(c1ccc(C2=CSC3=NCCN23)cc1)N1CCOCC1	i	>57
O=C(NCCN1CCCCCC1)C1CCC(CNS(=O)(=O)c2cccc3cccnc23)CC1 (stereo not given)	i	·
Cc1ccc(OCCSc2cc(C)nc(N)n2)cc1	i	·
O=C(COC(=O)C1CCN(S(=O)(=O)c2cccs2)CC1)c1ccc2c(c1)OCCO2	i	>57
O=C(NC[C@@H]1CCCCN1)c1cc(OCC(F)(F)F)ccc1OCC(F)(F)F	i	·
O=C(c1cnn(-c2nc3ccccc3s2)c1)c1ccccc1O	i	>57
COc1cccc(Nc2ncc3nc(C)c(=O)n(C4CC4)c3n2)c1	i	·
CCCSc1nc(N)c2c3c(sc2n1)CN(C)CC3	i	>57
Cc1cccc2c(=O)c(C(=O)N3CCCCCC3)c[nH]c12	i	>57
CCCS(=O)(=O)N1CCCC(C(=O)NCCCN2CCN(c3ccccc3F)CC2)C1 (stereo not given)	i	>57
Cc1ccc(-c2ccc(CCC(=O)O)n2CC(=O)O)cc1	i	·
COC(=O)C1CCN(C(c2cc(OC)c(OC)c(OC)c2)c2sc3nc(C)nn3c2O)CC1 (stereo not given)	i	·
COc1ccc(CNC(=O)c2cc3c(=O)n4ccccc4nc3n(CC3CCCO3)c2=N)cc1 (stereo not given)	i	>57
O=C(Nc1ccccc1)N1CC[C@@]2(CCCN(C(=O)c3cc(C(F)(F)F)cc(C(F)(F)F)c3)C2)C1	i	·
C=CCn1c(C)cc(C(=O)CSc2nc3ccccc3c(=O)[nH]2)c1C	i	i
Cc1c(NC(=O)c2ccc3c(c2)OCO3)cccc1-c1nc2ncccc2o1	i	·
CCOC(=O)c1ccc(NC(=O)c2cc(S(=O)(=O)N3CCOCC3)ccc2O)cc1	i	>57
CC(Sc1nncn1C)C(=O)Nc1ccccc1-c1ccccc1 (stereo not given)	i	>57
C=C1CC(C)OC(c2ccccc2OCC(O)CN2CCCCC2)C1 (stereo not given)	i	>57
COCCN1C(=O)C(O)=C(C(C)=O)C1c1ccc(OC)c(OC)c1 (stereo not given)	i	>57
O=C(c1ccncc1)N1CCC2(CC1)CN(c1ncccn1)C2	i	·
O=C(CN(Cc1ccco1)C(=O)c1cc(=O)[nH]c2ccccc12)Nc1ccccc1C(F)(F)F	i	>57
CC1Cc2ccccc2N1CC(=O)NC(=O)NCc1ccco1 (stereo not given)	i	?
O=C(NCc1ccco1)C(c1ccccc1F)N(CC1CCCO1)C(=O)Cn1nnc2ccccc21 (stereo not given)	i	>57
Cc1c2c(n3c(nc4ccccc43)c1C#N)N(Cc1cccnc1)CC2	i	>57
CS(=O)(=O)Nc1cccc(-c2ccc3ncnc(NC4CC4)c3c2)c1	i	·
CCOc1ccc(OCCCCN(C)C)cc1	i	·
CN(C)c1ccc(-c2nccc(NCc3cccs3)n2)cc1	i	·
Cc1nn(-c2ccc(F)cc2)c2sc(C(=O)OC3CCOC3=O)cc12 (stereo not given)	i	i
Cc1ccc2cc(CN(CC3CCCO3)C(=O)c3ccco3)c(=O)[nH]c2c1C (stereo not given)	i	>57
CCn1c(SCC(=O)Nc2nc3ccccc3s2)nc2c(c1=O)SC(C)C2 (stereo not given)	i	>57
COC(=O)c1cc(C(=O)OC)cc(N2C(=O)CC(N3CCN(c4ccccc4)CC3)C2=O)c1 (stereo not given)	i	>57
COc1ccc(C(=O)COC(=O)c2ccco2)cc1	i	3.14*
COc1ccc(S(=O)(=O)NCC(c2cccnc2)N2CCN(c3ccccc3)CC2)cc1C (stereo not given)	i	>57
O=C(NC1(C(F)(F)F)N=C2SCCN2C1=O)C1CCCCC1 (stereo not given)	i	>57
CCOc1ccc(NC2c3ccccc3C(=O)N2c2ccc(Cl)cn2)cc1 (stereo not given)	i	·
CCC(=O)Nc1cnc(NC(=O)c2cccc(F)c2)cc1C	i	·
CCOc1cccc(-c2nn3c(-c4cc(C)[nH]n4)nnc3s2)c1	i	·
COc1ccccc1NC(=O)Cn1nnc(-c2ccccc2NC(=O)c2ccco2)n1	i	>57
Cc1c(NC(=O)c2ccc(COc3ccc4ccccc4c3)o2)c(=O)n(-c2ccccc2)n1C	i	i
Cc1[nH]nc2c1C1(CCOC1C)C(C#N)=C(N)O2 (stereo not given)	i	>57
CC(C)c1nnc(NC(=O)CCC(=O)NCc2ccc3c(c2)OCO3)s1	i	>57
O=C(O)CCC(=O)N1CCN(c2ccccn2)CC1	i	>57
Cc1ccc(S(=O)(=O)N(CCO)c2cc3c(s2)CCCC3)cc1	i	>57
CC(=O)C1=C(O)CCC1=N	i	>57
O=C(NC1=NCCS1)c1cccs1	i	>57
O=C(CN1CCC(NC(=O)c2ccccc2)CC1)NCc1ccccc1F	i	>57
COC(=O)Cn1c2ccc(F)cc2c2nc(C)sc21	i	>57
CCn1c(SCc2nc3cc(OC)c(OC)cc3c(=O)[nH]2)nnc1-c1ccncc1	i	>57
CC(C)C(=O)Cc1ccc2ccccc2n1	i	·
C=CCn1c(SCc2cc(C(=O)OC)c(C)o2)nnc1-c1ccncc1	i	>57
COCCNC(=O)CSc1ccc(C)cc1	i	·
CCCNC(=O)Cc1ccsc1	i	>57
CCOc1cc(C(=O)Nc2ccc(S(=O)(=O)Nc3cc(C)on3)cc2)cc(OCC)c1OCC	i	>57
Cn1c(=O)c2c(nc(CN3CCN(c4ccccc4)CC3)n2CCCc2ccccc2)n(C)c1=O	i	>57

Next part:
Molecule	TsaE inh	PK Bst
COCCNC(=O)COc1ccc(OCCNC[C@@H](O)COc2ccccc2)cc1	i	·
Cc1ccc(O)c(N=CC2=C(O)c3ccccc3C2=O)c1	i	·
CCn1c(=O)cc(OCC(=O)NCCCN2CCN(c3cccc(Cl)c3)CC2)c2ccccc21	i	>57
CCOC(=O)C1CCCN(CC(O)COc2ccc(OC)cc2C(C)(C)C)C1 (stereo not given)	i	>57
NC(=O)C1CCN(C(=O)c2ccc(CS(=O)(=O)c3c(Cl)cccc3Cl)o2)CC1	i	·
CC(C)n1c2ccccc2c2nnc(SCC(=O)OCN3C(=O)c4ccccc4C3=O)nc21	i	·
COC(=O)C1(C(F)(F)F)N=C(N(C)C)OC(N(C)C)=N1	i	>57
Cc1noc(C)c1C(=O)N1CCC2(CCCN(Cc3nccs3)C2)CC1	i	·
O=C(CSc1ccc2nnc(-c3ccccn3)n2n1)N1CCOCC1	i	·
O=C1OCCC1Sc1ncnc2sccc12 (stereo not given)	i	>57
CN(CC(=O)N1CCCCC1)S(=O)(=O)c1cccc2cccnc12	i	·
O=C(CN1CCN(S(=O)(=O)c2ccccc2)CC1)Nc1ccc2c(c1)OCO2	i	>57

A portion of the library. The share of hits here may be higher or lower than overall.
